Assay outcomes deposited in PubChem by National Center for Advancing Translational Sciences (NCATS).
TRPV1 PAM – potentiators of human vanilloid receptor 1 (TRPV1); AID 540277; potentiation, % at 8.33 µM; Q8NER1; 320,000 compounds, 0.02% hits; TRPV1-expressing cells, Fluo-8 calcium influx, capsaicin EC20 potentiation; host cell line not named in the record; control for the full effect not named in the record; active means potentiation above 80%; inconclusive means 30% to 80%; inactive means below 30%; note: 0% is about no effect
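TRPV1-expressing cells were cultured overnight at 35.5C and loaded with Fluo-8 calcium dye for 40 to 90 min at room temperature. After a 10 s baseline, compound was added and calcium influx was read kinetically for 3 min (ex 480/em 520 nm).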
ClpP mod – qHTS Assay for Activators of ClpP | ATP-dependent Clp protease proteolytic subunit (Bacillus subtilis (strain 168)), P80244 | purified B. subtilis ClpP, FRET peptide cleavage, 20 min | Potency, µM (highest dose often 57.5 µM), inactives show at the top dose activity change, negative = active | 340,000 compounds, 1.9% hits | AID 651965, 2013; active = well fitted falling curve with a large enough effect; inconclusive = small, poorly fitted or top-dose-only effect; inactive = no such curve, though single readings can be large or run the other way; note: potency is the fitted concentration of half-maximal effect; the source files actives as falling curves though it sought activators and does not explain the sign; nearly all actives have a fitted effect of over 65% in size; many hits overshoot -100%
Target sequence (P80244 whole entry, looked up): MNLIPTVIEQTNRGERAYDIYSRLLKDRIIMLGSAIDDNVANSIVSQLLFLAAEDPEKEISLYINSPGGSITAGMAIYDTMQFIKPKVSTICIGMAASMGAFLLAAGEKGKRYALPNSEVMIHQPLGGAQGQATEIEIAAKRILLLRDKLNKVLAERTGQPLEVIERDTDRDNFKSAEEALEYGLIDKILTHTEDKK
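Buffer: 100 mM Tris/HCl pH8, 100 mM KCl, 0.05% low protease BSA, 2.5% glycerol, 0.01% Tween-20. ClpP 10 microg/mL final; 20 min RT; delta FRET normalized to ADEP and DMSO controls.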
gsp antagonist – gsp mutant antagonism | Potency, µM (doses to about 76.9 µM), for the others: top-dose activity change, negative = inhibition, most hits filed as inhibitors | gsp-mutant cells, cAMP HTRF, 30 min; control for the full effect not named in the record | AID 624288 | 340,000 compounds, 0.4% hits; active = falling curve of any shape with a large fitted effect; inconclusive = falling curve, mostly with a smaller effect; inactive = flat or rising curve; cell line not stated here;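 note: intracellular cAMP measured with PDE inhibitor Ro 20-1724 present during compound exposure; potency is the fitted concentration of half-maximal effect; % is set by controls: 0 for no effect and ±100 for the full control effect; nearly all actives have a fitted effect of over 65% in size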
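HTRF cAMP read-out (cAMP-d2 plus anti-cAMP antibody-K in lysis buffer, 30 min RT). Before lysis, cells are exposed to compounds with […] for 30 min at 37C in DPBS containing Ca/Mg, BSA and Tween 20.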
gsp ag – gsp mutant agonism; AID 624287; 340,000 compounds, 0.13% hits; Potency, µM (highest dose often 76.9 µM), for inactives: at the top dose activation (cAMP increase), hits mostly activators; gsp mutant cells, cAMP HTRF, 30 min; control for the full effect not named in the record; active = well fitted activation curve with a large enough effect; inconclusive = small, poorly fitted or top-dose-only effect, or another doubt; inactive = no such curve, though single readings can be large or run the other way; cell line not stated here;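 note: phosphodiesterase inhibitor Ro 20-1724 added with compounds to block cAMP breakdown; potency is the fitted concentration of half-maximal effect; nearly all actives have a fitted effect of over 60% in size; about a fifth of the inactives were tested at one dose only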
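Cells in DMEM/10% FBS with G418 were pretreated with compounds in DMSO plus […] (300 uM stock) for 30 min at 37C. cAMP was measured by HTRF (cAMP-d2 plus anti-cAMP antibody-K) after 30 min at room temperature.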
D2 potentiator – human D2 receptor positive allosteric modulation. potentiation, % (concentration not given with the values). 360,000 compounds, 0.23% hits. AID 624464. DiscoveRx D2 beta-arrestin cells, luminescence, 90 min; 100% = 57 uM dopamine signal; active = potentiation of 50% or more; inconclusive = 30% to 50%; inactive = 30% or less;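 note: tested on top of an EC20 dose of dopamine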
Target sequence (P14416 whole entry, looked up): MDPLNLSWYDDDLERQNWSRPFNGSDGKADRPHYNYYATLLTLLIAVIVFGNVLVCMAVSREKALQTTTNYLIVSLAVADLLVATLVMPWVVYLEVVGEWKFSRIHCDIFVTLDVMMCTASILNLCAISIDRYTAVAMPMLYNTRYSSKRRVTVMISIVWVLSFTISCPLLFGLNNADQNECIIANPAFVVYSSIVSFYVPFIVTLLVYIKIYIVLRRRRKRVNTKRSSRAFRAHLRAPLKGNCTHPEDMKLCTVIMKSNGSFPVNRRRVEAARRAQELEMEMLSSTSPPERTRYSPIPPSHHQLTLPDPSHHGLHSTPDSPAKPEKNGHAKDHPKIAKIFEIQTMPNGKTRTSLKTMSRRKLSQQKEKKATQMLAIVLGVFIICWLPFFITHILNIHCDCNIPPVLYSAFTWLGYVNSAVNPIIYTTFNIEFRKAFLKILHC
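D2 cells co-treated with compound plus 50 nM dopamine (EC20) for 90 min at 37 deg C to detect potentiation. Beta-arrestin recruitment was read as enzyme-fragment luminescence after 1 h at ambient temperature. Full response was set by 57 uM dopamine.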
Menin-MLL FL inh – menin-MLL binding inhibition, fluorescein peptide; AID 1766; FP activity change, % at 61.4 µM; 290,000 tested, under 10 active; Fluorescence polarization, fluorescein-MLL peptide displacement from menin; inconclusive = falling polarisation curve, or a change in total fluorescence; inactive = total fluorescence flat and polarisation flat or rising; no compound was filed as active; the % refers to the polarisation; negative = inhibition;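 note: % of control where 0% means no effect; inhibitors lower the polarisation; unlabelled MLL peptide was the positive control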
Sfp inh – inhibitors of Bacillus subtilis Sfp phosphopantetheinyl transferase | Q9F4F7 | Biochemical Sfp PPTase activity, qHTS | Potency, µM, for the others: max response, negative = inhibition, usual class: inhibitors | 310,000 compounds, 3.5% hits | AID 1490; active = well fitted inhibition curve with a large enough effect; inconclusive = small, poorly fitted or top-dose-only effect, or another doubt; inactive = no such curve, though single readings can be large or run the other way;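 note: the enzyme is Sfp with the accession as filed and its product quenches rhodamine fluorescence; potency is the fitted concentration of half-maximal effect; 0% = enzyme reaction without inhibitor and -100% = no enzyme wells; top concentration of the series not given in the record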
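Reaction rates are the 30-min fluorescence difference (ex 525, em 598 nm) in wells containing 15 nM Sfp, 5 uM rhodamine-CoA and 12.5 uM BHQ-2-YbbR at pH 7.6 with 10 mM MgCl2.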
The depositor's hits bear a star; u = inconclusive; x = not tested or not shown; & = joins results of further samples; [ ] = remark or other dose.

SMILES | TRPV1 PAM | ClpP mod | gsp antagonist | gsp ag | D2 potentiator | Menin-MLL FL inh | Sfp inh
O=C(COC(=O)c1cccc(C(F)(F)F)c1)NCc1ccc(Cl)cc1 | -12.7 | 0.4% | 1.6% | 9.0% | -1.4 | 3.0 | 10.6%
CC(C)COc1nc2ccccc2c(=O)n1OCC(=O)O | -2.4 | -4.2% | -4.0% | -48.1%[inhibitor] | -14.5 | 0.8 | 27.8%
O=C1c2cccc3cccc(c23)C(=O)N1c1ccccc1Cl | -2.8 | 3.9% | 12.2% | -42.1%[inhibitor] | -0.1 | 2.2 | -1.5%
CC(=O)Nc1ccc(NC(=O)COC(=O)c2ccccc2SCC(=O)N2CCCC2)cc1 | -1.1 | -1.0% | 4.0% | 2.9%[15.4 µM] | 0.1 | x | x
O=C(Cc1cccc(NC(=O)C2CCN(C(=O)C3CCCCC3)CC2)c1)Nc1cccc(C(=O)N2CCCCC2)c1 | x | -0.6% | 8.5% | x | -8.1 | x | x
CN(CC(=O)NC1CCN(Cc2ccccc2)CC1)S(=O)(=O)c1ccc2c(c1)c(=O)n(C)c(=O)n2C | 14.6 | x | 2.9% | u | -7.6 | -0.8 | -3.0%
c1cc(-c2ccncc2)ccn1 | -10.6 | 0.8% | 10.9% | 21.2% | -10.8 | -1.2 | 7.3%
CCOC(=O)/C=C1\CC(=O)Nc2cc(C)c(C)cc2N1 | -2.2 | -18.6% | 7.9% | -7.5% | -1.3 | 0.7 | -7.5%
O=C(Nc1ccccc1Cl)c1ccc2ccccc2c1 | 25.3 | -2.8% | 1.0% | 10.9% | -4.0 | 20.3 | -5.7%
CC(Oc1ccccc1)c1ccnc2nc(N3CCOCC3)nn12 (stereo not given) | -40.8 | x | 8.0% | 23.4% | 2.0 | -1.1 | 11.5%
COc1cc(NC(=O)CSc2nnc3c(n2)[nH]c2ccc(S(=O)(=O)NC(C)C)cc23)cc(OC)c1OC | 3.7 | 1.1% | 5.7% | -28.8% | 1.1 | -2.2 | -7.4%
CCCCCCCCCc1nc2sc3c(c2c(=O)n1NC(=O)c1ccc([N+](=O)[O-])cc1)CC(C)(C)OC3 | 19.5 | 2.0% | u | 6.6%[15.4 µM] | -23.5 | 2.8 | 15.2%
Cc1cc(C)cc(OCC(O)CN2CC(C)OC(C)C2)c1 (stereo not given) | 3.5 | -0.7% | 12.7% | -3.5%[15.4 µM] | -7.6 | 1.6 | 7.4%
O=c1nc2ccccc2c2n1CC(CN1CCN(c3ccc(F)cc3)CC1)N2 (stereo not given) | 13.7 | -4.3% | -2.5% | 9.5% | -7.6 | -1.7 | -2.3%
CCCNC(=O)c1cccc(Br)c1 | -11.4 | x | 7.9% | 2.3%[15.4 µM] | -10.8 | 2.8 | 18.8%
O=C1N(Cc2cccnc2)C[C@@H]2C[C@@H](c3cccc(Oc4ccccc4)c3)N3CCC[C@@]123 | -5.8 | 0.7% | -2.4% | 6.9% | -13.1 | 3.5 | -7.0%
CN(C)CCCn1c(N)c(C#N)c2nc3ccccc3nc21 | -5.2 | x | 17.8% | 2.6%[15.4 µM] | -2.5 | u | 3.7%
Cn1c2ccccc2c2cc(/C=N/NC(=O)c3cc(O)cc(O)c3)ccc21 | 1.3 | 3.7% | -2.0% | -31.1%[inhibitor] | 0.2 | 0.9 | -5.4%
COc1ccc(-c2n[nH]c(C)c2-c2ccc(Cl)cc2)c(O)c1 | 6.7 | -5.6% | -2.4% | 2.1% | -5.4 | -0.6 | -18.9%
C=CCn1c(SCC(=O)Nc2cc(Cl)ccc2C(=O)O)nc2sc(C)c(C)c2c1=O | 14.4 | -1.8% | -16.5% | 7.8% | -1.8 | x | x
CC(C)(C)c1ccc(C2(C)NC(=O)N(CC(=O)c3ccc[nH]3)C2=O)cc1 (stereo not given) | -2.6 | -0.9% | 11.0% | 3.7% | -1.9 | 1.3 | 17.7%
O=C(Oc1cc(Cl)cc(Cl)c1)c1cnc2n(c1=O)CCS2 | -8.3 | x | 0.3% | 17.4%[15.4 µM] | -5.2 | 2.9 | 5.3%
COC(=O)Cn1c(N)[n+](Cc2ccccc2)c2ccccc21 | -35.5 | -1.7% | -3.9% | -3.8% | -7.2 | x | x
Cc1noc(C)c1COc1cccc(C(=O)OC(C)C(=O)Nc2ccc3c(c2)OCO3)c1 (stereo not given) | -16.2 | 0.8% | -1.5% | -3.3% | 5.7 | 4.1 | 16.1%
CCCN1C(=O)c2ccc(C(=O)NC3CCCCC3)cc2C1=O | -9.5 | 1.3% | 16.3% | 0.0% | 17.3 | -1.2 | 23.6%
CNC(=O)CCc1nc(-c2ccc(C(C)(C)C)cc2)no1 | -6.4 | u | 9.1% | -2.1% | -14.7 | 1.2 | -1.1%
COC(=O)Nc1nnc(COc2ccccc2)s1 | 2.6 | x | 1.9% | -3.9%[15.4 µM] | -8.3 | -0.6 | 9.8%
CCN(CC)CCCN(Cc1cc2cc3c(cc2[nH]c1=O)OCO3)C(=S)NCc1ccco1 | 9.8 | x | x | 19.1%[15.4 µM] | -11.8 | 4.0 | -12.9%
COCC(C)n1c(COc2ccccc2F)nnc1SCC(=O)Nc1oc(C)c2c(C)n[nH]c(=O)c12 (stereo not given) | -12.8 | -1.4% | -8.3% | -1.8% | -23.0 | x | x
CC1CCCCC1NC(=O)c1ccc(-n2cncn2)c([N+](=O)[O-])c1 (stereo not given) | 8.1 | u | -2.4% | -66.9%[inhibitor] | -21.9 | x | x
Cc1cc(-c2ccccc2)nc(SCc2ccc(C(=O)O)o2)n1 | 1.6 | -0.4% | -7.8%[15.4 µM] | -0.9% | -15.4 | 3.5 | 18.8%
Nc1nc(-c2ccccc2)ns1 | x | -2.0% | 3.1% | u | -10.0 | x | x
O=C(NNC(=S)NCc1ccccc1)c1cccc([N+](=O)[O-])c1 | 8.6 | x | -11.2% | 4.8%[15.4 µM] | -2.2 | -1.9 | 10.2%
O=C(COC(=O)c1ccc([N+](=O)[O-])s1)NCc1ccc(F)cc1 | -20.9 | 1.2% | 0.4% | -4.1%[15.4 µM] | 9.3 | -23.8 | 14.8%
O=C(Nc1nc2ccccc2s1)C1CC(=O)N(c2ccc(Br)cc2)C1 (stereo not given) | 20.7 | 0.3% | u | 0.7% | -8.0 | 0.3 | 6.5%
Clc1ccc(-c2nn3cnnc3s2)c(Cl)c1 | -8.1 | 0.0% | 1.3% | 15.6% | -8.2 | 5.2 | 9.4%
CC(CCc1ccccc1)NC(=O)COC(=O)c1ccc(NC(N)=O)cc1 (stereo not given) | 12.3 | -4.5% | -2.5% | 11.9% | -1.5 | -8.2 | 8.0%
Cc1cc(C=NCCCO)c(C)n1-c1cc(Cl)ccc1Cl | 1.9 | x | 1.8% | -4.0%[15.4 µM] | -3.7 | 3.5 | -5.3%
COc1ccc(OC)c(NC(=O)C2CCCNC2=O)c1 (stereo not given) | -6.2 | 1.6% | 14.3% | -57.6% | -14.1 | 3.5 | -14.1%
O=C(CN1CCN(C(=O)C2CCCO2)CC1)Nc1c(Cl)cccc1Cl (stereo not given) | -0.7 | 0.6% | 7.6% | 23.1% | 8.0 | -3.4 | -2.4%

One compound at a time, from the list above.
CN(C)CCCn1c(N)c(C#N)c2nc3ccccc3nc21 as listed: TRPV1 PAM = -5.2; ClpP mod = x; gsp antagonist = 17.8%; gsp ag = 2.6%[15.4 µM]; D2 potentiator = -2.5; Menin-MLL FL inh = u; Sfp inh = 3.7%
CCOC(=O)/C=C1\CC(=O)Nc2cc(C)c(C)cc2N1 as listed: TRPV1 PAM = -2.2; ClpP mod = -18.6%; gsp antagonist = 7.9%; gsp ag = -7.5%; D2 potentiator = -1.3; Menin-MLL FL inh = 0.7; Sfp inh = -7.5%

Continued:
SMILES | TRPV1 PAM | ClpP mod | gsp antagonist | gsp ag | D2 potentiator | Menin-MLL FL inh | Sfp inh
CC(=O)C(Sc1ccc2nnc(-c3ccc(F)cc3)n2n1)C(C)=O | x | 0.8% | u | u | -6.2 | 3.7 | 10.3%
Cc1cc(Cl)ccc1NC(=S)N1CCOCC1 | 2.4 | -1.6% | 15.6% | -25.1% | 5.9 | 2.5 | -17.3%
CCN(c1ccccc1)S(=O)(=O)c1ccc(OC)c(NC(=O)C2CC(=O)N(Cc3ccccc3)C2)c1 (stereo not given) | u | 0.3% | -25.7% | 17.6% | -2.9 | 1.0 | 11.5%
O=C(O)Cn1ncc2c1-c1ccoc1CC2 | x | -28.4% | 6.0% | -24.0% | 1.0 | -8.8 | 44.7µM*
COc1ccc2oc(C(=O)OCC(=O)NC(=O)NC(C)C)c(C)c2c1 | -12.3 | 31.6µM* | 2.1% | 24.9% | -6.6 | -0.9 | 5.3%
CC(=O)N1c2ccccc2N2C(c3c(C)c(C)cc(C)c3C)=NON12 | 3.6 | -0.2% | -2.8% | -1.1% | -9.7 | -2.7 | -10.8%
O=C1NCCC12C(=O)Nc1ccccc12 (stereo not given) | x | 2.9% | 7.2% | x | 2.5 | x | x
CCCCCCCC/C=C\CCCCCCCC(=O)NCCc1ccc(O)c(O)c1 | -2.1 | -1.0% | -9.3% | x | u | 8.5&1.1&0.3 | 8.7%&9.1%
CN1C(=O)c2ccc(NC(=O)c3c(C(=O)O)cccc3[N+](=O)[O-])cc2C1=O | 3.2 | -8.3% | 3.9% | 0.4% | -11.0 | -2.9 | -8.4%
CCOC(=O)N1CCC(NC(=O)Cn2ncc3c2-c2cc(C)ccc2OC3)CC1 | -6.0 | -1.6% | -8.8% | u | -1.2 | 2.6 | 2.3%
COc1ccc(CNC(=O)CN2CCN(S(=O)(=O)c3c(C)c(C)cc(C)c3C)CC2)cc1OC | x | -1.5% | -17.9% | -27.9% | 1.5 | x | x
O=C(Cc1n[nH]c(=O)c2ccccc12)OCc1c(Cl)cccc1Cl | -2.4 | x | 6.3% | 14.6%[15.4 µM] | -5.8 | 2.6 | -9.3%
COC(=O)Cn1c(=NC(=O)c2cc(OC)c(OC)c(OC)c2)sc2cc(OC)ccc21 | -14.2 | 2.82µM* | -7.0% | 25.7% | -3.7 | 4.8 | -1.7%
CC1=CC2=NC(=O)/C(=C\c3cc(C)n(-c4ccccc4)c3C)C(=N)N2O1 | -1.5 | -2.5% | 11.8% | -0.2%[15.4 µM] | -12.8 | 4.4 | 3.5%
